Compound activity from PubChem BioAssay.
D2 potentiator – human D2 receptor positive allosteric modulation. DiscoveRx D2 beta-arrestin cells, luminescence, 90 min; 100% = 57 uM dopamine signal. 0.23% of 360,000 active. potentiation, % (test concentration not listed). P14416; active = potentiation of 50% or more; inconclusive = 30% to 50%; inactive = 30% or less;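 also: compound concentration not given in the record; tested on top of an EC20 dose of dopamine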
Target sequence (P14416 whole entry, looked up): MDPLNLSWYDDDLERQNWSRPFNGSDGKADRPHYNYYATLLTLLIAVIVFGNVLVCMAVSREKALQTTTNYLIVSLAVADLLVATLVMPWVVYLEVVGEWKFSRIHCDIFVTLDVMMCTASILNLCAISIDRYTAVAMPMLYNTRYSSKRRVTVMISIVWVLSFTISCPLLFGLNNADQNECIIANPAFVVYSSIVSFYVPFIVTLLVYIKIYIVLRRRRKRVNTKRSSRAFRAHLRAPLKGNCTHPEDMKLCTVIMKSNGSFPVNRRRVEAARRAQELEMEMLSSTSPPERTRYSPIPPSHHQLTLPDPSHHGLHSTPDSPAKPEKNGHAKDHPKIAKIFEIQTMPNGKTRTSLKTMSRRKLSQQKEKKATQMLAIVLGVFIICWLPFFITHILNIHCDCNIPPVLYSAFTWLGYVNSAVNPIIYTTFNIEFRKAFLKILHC
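D2 cells co-treated with compound plus 50 nM dopamine (EC20) for 90 min at 37 deg C to detect potentiation. Beta-arrestin recruitment was read as enzyme-fragment luminescence after 1 h at ambient temperature. Full response was set by 57 uM dopamine.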
D2 ag – agonists of human D2 dopamine receptor (beta-arrestin); P14416; DiscoveRx PathHunter D2 beta-arrestin, luminescence, 90 min; 100% = 57 uM dopamine signal; activation, % (no concentration beside the values); AID 624465; 0.084% of 360,000 active; in the data active = activation above about 40%; inconclusive = about 15% to 40%; inactive = below about 15%; also: compound concentration not given in the record; the text of the record calls up to 30% inactive
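DiscoveRx PathHunter D2 beta-arrestin cells (2,100/well) attached overnight, then compound-stimulated 90 min at 37 C in HBSS/10 mM HEPES/0.1% Tween-20 buffer; beta-galactosidase complementation read by luminescence after 1 h at ambient temperature. Dopamine 57 uM final (EC100) as control.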
gsp ag – agonists of gsp mutant (McCune-Albright syndrome); AID 624287; 0.13% of 340,000 active; gsp mutant cells, cAMP HTRF, 30 min; control for the full effect not named in the record; Potency, µM (series often up to 76.9 µM), without a hit: at the highest dose activation (cAMP increase), hits mostly activators; active = well fitted activation curve with a large enough effect; inconclusive = small, poorly fitted or top-dose-only effect, or another doubt; inactive = no such curve, though single readings can be large or run the other way; cell line not stated here;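 also: phosphodiesterase inhibitor Ro 20-1724 added with compounds to block cAMP breakdown; potency is read from the fitted curve at half-maximal effect; nearly all actives have a fitted effect of over 60% in size; about a fifth of the inactives were tested at one dose only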
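Cells stably selected in G418 were plated at 2000/well, grown 16-24 hr, then given compounds in DMSO with the PDE inhibitor […] (300 uM solution added) for 30 min at 37C; cAMP was read by HTRF.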
Six1-Eya2 inh – inhibitors of human Six1/Eya2 interaction; 0.56% of 360,000 active; AlphaScreen GST-Six1/His-Eya2 binding, biochemical; hits give low values; control for the full effect not named in the record; Q15475+O00167; AID 651725; activity change, % (no concentration beside the values); in the data active = activity change below about -65%; inconclusive = about -30% to -65%; inactive = above about -30%; also: % is scaled to controls: 0 for no effect and ±100 for the full control effect; compound concentration not given in the record
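AlphaScreen with GST-Six1 and His-Eya2 (5X mix: 250 nM and 500 nM), glutathione donor and nickel acceptor beads; buffer 50 mM Tris pH 8.0, 300 mM NaCl, 1 mM TCEP; 1 h at 37 C in the dark.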
CtBP-E1A blk – blocks the CtBP interaction with E1A; AlphaScreen GST-E1A/His-CtBP binding, 1536-well; hits give low values; control for the full effect not named in the record; activity change, % (no concentration beside the values); 0.49% of 340,000 active; in the data active means activity change below about -65%; inconclusive means about -30% to -65%; inactive means above about -30%; also: % is scaled to controls: 0 for no effect and ±100 for the full control effect; compound concentration not given in the record
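In 5 uL wells, 23 nL compound meets equimolar GST-E1A and His-CtBP (5X stock 125 nM each) for 2 h, 37 °C. Beads (5X, 50 ug/mL) then 1 h, 37 °C, dark.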
gsp antag – antagonizes gsp, the McCune-Albright syndrome mutation. gsp-mutant cells, cAMP HTRF, 30 min; control for the full effect not named in the record. Potency, µM (highest dose often 76.9 µM), for inactives: at the highest dose activity change, negative = inhibition, actives largely listed as inhibitors. 0.4% of 340,000 active. AID 624288; active = falling curve of any shape with a large fitted effect; inconclusive = falling curve, mostly with a smaller effect; inactive = flat or rising curve; cell line not stated here;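 also: intracellular cAMP measured with PDE inhibitor Ro 20-1724 present during compound exposure; potency is read from the fitted curve at half-maximal effect; % is scaled to controls: 0 for no effect and ±100 for the full control effect; nearly all actives have a fitted effect of over 65% in size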
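Measurement of cellular cAMP by homogeneous time-resolved fluorescence following a 30 min compound exposure at 37C. The PDE inhibitor […] was present throughout; the assay buffer was DPBS with 0.05% BSA and 0.005% Tween 20.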
An asterisk follows results filed as active; ? = inconclusive; nt = not tested or not shown; [ ] = another dose, or the depositor's remark. Rows are unselected. Share with any hit: about 1.4%.

Codes: A = D2 potentiator; B = D2 ag; C = gsp ag; D = Six1-Eya2 inh; E = CtBP-E1A blk; F = gsp antag
Cc1ccc(CCNC(=O)c2ccc(CS(=O)(=O)c3ccccc3C)o2)cc1
  A: -15; B: -1.9; C: -10%; D: -2; E: -6; F: -5%

O=C(c1ccccc1)N1CCC(=O)N1c1ccccc1
  A: -5; B: 1.1; C: 3%; D: 5; E: 5; F: 9%

O=C1c2ccccc2CCC12OC2c1ccncc1 (stereo not drawn)
  A: -10; B: 0.3; C: -2%; D: 2; E: 0; F: nt

Cc1cc(C)c(C#N)c(SC(C(=O)NC(C)(C)C)c2ccccc2)n1 (stereo not drawn)
  A: -4; B: -1.2; C: -1%[15.4 µM]; D: -11; E: 8; F: -19%

Cc1ccc(C(=O)Nc2ccc(S(=O)(=O)N3CCCC3)cc2)cc1
  A: 0; B: -2.5; C: 1%; D: -14; E: -23; F: 3%

COc1cccc2c1C(=N)c1c(O)c3c(c(O)c1C2=O)CC(O)(C(C)=O)CC3OC1CC(N)C(O)C(C)O1 (stereo not drawn)
  A: -16; B: 0.9; C: -12%; D: ?; E: ?; F: ?

COc1ccc(C(=O)/C(=C/O)N=Nc2ccc(F)cc2)cc1
  A: 0; B: -1.8; C: -12%; D: -19; E: -6; F: ?

CCC(=O)c1ccc(OCc2ccc(C(=O)OC)cc2)c(OC)c1
  A: 1; B: -0.2; C: -13%; D: 10; E: 12; F: 2%

COc1ccc(CCC(=O)NNC(=O)c2ccccn2)cc1OC
  A: 10; B: 0.7; C: -4%; D: ?; E: ?; F: 1%

O=C(CSc1nnc(-c2ccccc2Br)o1)N1CCc2ccccc2C1
  A: -11; B: -3.2; C: -30%; D: -2; E: 6; F: -17%

COc1ccc(C2=CC(c3cccc(OC)c3)n3nnnc3N2)cc1 (stereo not drawn)
  A: -16; B: -3.1; C: 5%[15.4 µM]; D: -7; E: 7; F: -6%

O=C(NCc1ccc(F)cc1)C(=O)NCC1OCCN1C(=O)c1ccc(Cl)cc1 (stereo not drawn)
  A: -3; B: 0.8; C: -22%; D: 8; E: 3; F: -2%

COC(=O)c1ccc(/C=N/OCC(=O)Nc2cc(F)ccc2F)cc1
  A: 0; B: 3.8; C: -13%; D: 0; E: 9; F: -3%

COc1ccc(OCCC(=O)Nc2ccc(S(N)(=O)=O)cc2)cc1
  A: -2; B: -2.8; C: -4%[15.4 µM]; D: -1; E: 11; F: 17%

Cc1ccc(CNC(=O)C2CCC(=O)N(CCc3ccc(Cl)cc3)C2)cc1 (stereo not drawn)
  A: -11; B: -0.7; C: -84%[inhibitor]; D: 2; E: 11; F: -20%

COc1ccc(OCC(=O)Nc2ccc(S(=O)(=O)N3CCCCCC3)cc2)cc1
  A: 8; B: -4.3; C: 7%; D: -2; E: -9; F: -10%

COc1cccc(/C=N/NC(N)=S)c1OCc1ccccc1Cl
  A: -8; B: -3.2; C: -5%[15.4 µM]; D: -16; E: -18; F: -1%

CCN(CC)CCN1CNC(=S)NC1
  A: -7; B: -5.7; C: -3%; D: 16; E: -2; F: nt

CC(NC(=O)[C@H](C)NC(=O)N1CCn2c1nc1ccccc12)c1ccccc1 (stereo partly drawn)
  A: -3; B: -1.6; C: ?; D: 2; E: 2; F: -10%

COc1ccc(CNC(=O)COc2ccc(S(=O)(=O)N3CCOCC3)cc2)cc1
  A: -12; B: -1.9; C: -8%; D: -15; E: 10; F: 4%

CCCN(CCC)S(=O)(=O)c1ccc(C(=O)NCc2ccc3c(c2)OCO3)cc1
  A: -3; B: 3.4; C: 0%; D: -1; E: 7; F: -8%

CCn1c(SCC(=O)c2cc(C)n(C)c2C)nnc1-c1ccccc1
  A: 6; B: -2.6; C: ?; D: -8; E: 1; F: -6%

Cc1ccc(C2C=C(c3ccccc3OC(F)F)Nc3ncnn32)cc1 (stereo not drawn)
  A: 1; B: -2.2; C: 4%; D: 2; E: -1; F: -9%

CCC(C)NC(=O)COc1ccc(OCc2ccccc2)cc1 (stereo not drawn)
  A: -2; B: 1.2; C: 10%; D: 9; E: nt; F: 8%

Cc1ccccc1C(=O)N1CCN=C1SCc1ccc([N+](=O)[O-])cc1
  A: -16; B: 2.8; C: 9%[15.4 µM]; D: -17; E: -20; F: -10%

Cc1ccc(N2C(=O)CC(n3nc(C)cc3C)C2=O)cc1 (stereo not drawn)
  A: -9; B: -3.1; C: 16%; D: -11; E: -11; F: 10%

CCOc1ccc(CN2CCN(C/C=C/c3ccc(OC)cc3)CC2CCO)cc1 (stereo not drawn)
  A: -12; B: 1.8; C: 3%[15.4 µM]; D: -5; E: 0; F: 6%

CCOC(=O)N(C)C[C@H]1OCc2cnnn2CCCC(=O)N([C@@H](C)CO)C[C@@H]1C
  A: 9; B: -3.6; C: -25%; D: 1; E: 2; F: nt

CCC(C)(C)C(=O)Nc1ccc(OC)cc1[N+](=O)[O-]
  A: 9; B: 5.5; C: 9%; D: -20; E: -20; F: 8%

O=C(COc1ccccc1)NCC(=O)N/N=C/C=C/c1ccccc1
  A: -10; B: 0.5; C: 0%; D: -3; E: -4; F: 9%

CC[C@@H](C(=O)n1nc(C)cc1C)[C@H](NS(=O)(=O)c1ccc(C)cc1)c1ccccc1
  A: -20; B: -4.8; C: 1%; D: -2; E: -2; F: -3%[15.4 µM]

O=C(Nc1cccc(C(F)(F)F)c1)n1cc(-c2ccccn2)c(N2CCOCC2)n1
  A: -13; B: -1.4; C: 18%[15.4 µM]; D: 2; E: 0; F: 13%

CC(C)N(CCNC(=O)C1CCN(S(=O)(=O)N2CCOCC2)CC1)Cc1ccccc1
  A: -15; B: -1.5; C: 6%; D: -5; E: 0; F: 9%

CCC(=O)c1ccc(OC(=O)/C=C/c2cc(OC)c(OC)c(OC)c2)cc1
  A: -7; B: 3.1; C: 12%; D: -3; E: -6; F: -11%

CC(=O)Cn1ncc(N2CCCCC2)c(Cl)c1=O
  A: -10; B: -7.0; C: 22%; D: -1; E: nt; F: 50%[activator]

COCc1c(C(=O)NCc2ccccc2CN2CCCC2)oc2ccccc12
  A: -2; B: -1.4; C: -7%; D: 4; E: 15; F: -2%

CC(=O)c1ccc(NC(=O)C(C)Sc2nnc(C3CC3)n2C2CC2)cc1 (stereo not drawn)
  A: 10; B: 3.8; C: 15%; D: 5; E: -1; F: -14%

Cc1ccccc1-c1cccc([C@@H]2C[C@H]3[C@H](CON3C)CN2C(=O)C(C)(C)C)c1
  A: nt; B: 2.1; C: nt; D: 9; E: 2; F: -5%

O=C1c2cccnc2C(O)N1Cc1ccco1 (stereo not drawn)
  A: -3; B: -1.9; C: -69%; D: 11; E: 1; F: 10%

Cc1ccccc1-c1noc(-c2ccccc2F)n1
  A: 5; B: -0.1; C: 2%; D: 33; E: 12; F: -12%

COCC(COCCCNC(=O)Nc1ccc(Br)cc1)OC (stereo not drawn)
  A: -18; B: -3.3; C: -23%; D: 0; E: 4; F: -10%

COc1ccc(C(NC(=O)C2CCN(CCOc3ccc(Cl)cc3Cl)CC2)c2ccccn2)cc1 (stereo not drawn)
  A: -10; B: -7.2; C: nt; D: -16; E: -5; F: nt

COc1ccc(OC)c2[nH]c(=O)c(CCNS(=O)(=O)c3ccccc3)cc12
  A: -5; B: 0.1; C: -15%; D: 1; E: -1; F: 14%

O=C(CCC1CCCN(C(=O)CCCc2ccccc2)C1)N1CCN(c2ccccn2)CC1 (stereo not drawn)
  A: -3; B: -0.3; C: 0%; D: 0; E: 8; F: -38%

Cc1cc(NCCN2CCOCC2)n2nc(C)c(-c3ccccc3)c2n1
  A: -5; B: -1.4; C: ?; D: -18; E: 0; F: -14%

O=C(Cc1cccc(NC(=O)C2CCCN(C(=O)C3CC3)C2)c1)Nc1ccc(C(=O)N2CCOCC2)cc1 (stereo not drawn)
  A: -2; B: -2.7; C: nt; D: 6; E: 8; F: 6%

CCN(CC(=O)Nc1ccc(NC(C)=O)cc1)C(=O)CSc1ncnc2sc(C)c(C)c12
  A: -8; B: -5.0; C: ?; D: -11; E: 4; F: -5%

COc1cccc(/C=C/c2ccccn2)c1O
  A: -5; B: 0.5; C: -2%; D: 1; E: 1; F: 3%

O=S(=O)(NC(=S)NC1CCCCC1)c1ccccc1
  A: -22; B: -9.1; C: ?; D: 5; E: 8; F: 3%

COc1cccc(-c2nc(CS(=O)(=O)CC(=O)NCc3ccc(Cl)cc3)c(C)o2)c1
  A: -3; B: -5.0; C: ?; D: -6; E: 0; F: 4%

CCOC(=O)c1ccc(Cl)c(NC(=O)c2ccc(-c3ccccc3)cc2)c1
  A: 8; B: 0.1; C: -1%; D: 0; E: -6; F: 7%

CCN(C(=O)COC(=O)/C=C/c1ccco1)c1c(N)n(Cc2ccccc2)c(=O)[nH]c1=O
  A: 1; B: -1.4; C: 14%; D: 3; E: -20; F: 11%

Cc1ccc(S(=O)(=O)O)c(C)c1N1CCCC1=O
  A: -7; B: -4.5; C: 0%; D: 0; E: 6; F: -5%

Grouped by structure, the compounds so far with a Cl atom
Codes: A = D2 potentiator; B = D2 ag; C = gsp ag; D = Six1-Eya2 inh; E = CtBP-E1A blk; F = gsp antag
O=C(NCc1ccc(F)cc1)C(=O)NCC1OCCN1C(=O)c1ccc(Cl)cc1 (stereo not drawn)
  A: -3; B: 0.8; C: -22%; D: 8; E: 3; F: -2%

Cc1ccc(CNC(=O)C2CCC(=O)N(CCc3ccc(Cl)cc3)C2)cc1 (stereo not drawn)
  A: -11; B: -0.7; C: -84%[inhibitor]; D: 2; E: 11; F: -20%

COc1cccc(/C=N/NC(N)=S)c1OCc1ccccc1Cl
  A: -8; B: -3.2; C: -5%[15.4 µM]; D: -16; E: -18; F: -1%

CC(=O)Cn1ncc(N2CCCCC2)c(Cl)c1=O
  A: -10; B: -7.0; C: 22%; D: -1; E: nt; F: 50%[activator]

COc1ccc(C(NC(=O)C2CCN(CCOc3ccc(Cl)cc3Cl)CC2)c2ccccn2)cc1 (stereo not drawn)
  A: -10; B: -7.2; C: nt; D: -16; E: -5; F: nt

COc1cccc(-c2nc(CS(=O)(=O)CC(=O)NCc3ccc(Cl)cc3)c(C)o2)c1
  A: -3; B: -5.0; C: ?; D: -6; E: 0; F: 4%

CCOC(=O)c1ccc(Cl)c(NC(=O)c2ccc(-c3ccccc3)cc2)c1
  A: 8; B: 0.1; C: -1%; D: 0; E: -6; F: 7%
